# KCNQ2 enhance = potentiators of rat KCNQ2 potassium channel | Potassium voltage-gated channel subfamily KQT member 2 (Rattus norvegicus), O88943 | CHO-K1 KCNQ2, FluxOR thallium flux fluorescence; hits give high values | B-score at 10 µM | 310,000 tested, 0.54% active;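 active means fluorescence ratio B-score at least 3 SD of library B-scores, with initial fluorescence B-score within 3 SD, cut at about 5.3 in these data; same plate scores as AID 2156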;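 further: B-score of peak minus minimum over baseline fluorescence ratio after K+ and Tl+ stimulus; positive B-score means potentiation of KCNQ2 with more thallium influx and brighter signal; only the inactives scoring about 0 or higher are listed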
# Target sequence (O88943 whole entry, looked up): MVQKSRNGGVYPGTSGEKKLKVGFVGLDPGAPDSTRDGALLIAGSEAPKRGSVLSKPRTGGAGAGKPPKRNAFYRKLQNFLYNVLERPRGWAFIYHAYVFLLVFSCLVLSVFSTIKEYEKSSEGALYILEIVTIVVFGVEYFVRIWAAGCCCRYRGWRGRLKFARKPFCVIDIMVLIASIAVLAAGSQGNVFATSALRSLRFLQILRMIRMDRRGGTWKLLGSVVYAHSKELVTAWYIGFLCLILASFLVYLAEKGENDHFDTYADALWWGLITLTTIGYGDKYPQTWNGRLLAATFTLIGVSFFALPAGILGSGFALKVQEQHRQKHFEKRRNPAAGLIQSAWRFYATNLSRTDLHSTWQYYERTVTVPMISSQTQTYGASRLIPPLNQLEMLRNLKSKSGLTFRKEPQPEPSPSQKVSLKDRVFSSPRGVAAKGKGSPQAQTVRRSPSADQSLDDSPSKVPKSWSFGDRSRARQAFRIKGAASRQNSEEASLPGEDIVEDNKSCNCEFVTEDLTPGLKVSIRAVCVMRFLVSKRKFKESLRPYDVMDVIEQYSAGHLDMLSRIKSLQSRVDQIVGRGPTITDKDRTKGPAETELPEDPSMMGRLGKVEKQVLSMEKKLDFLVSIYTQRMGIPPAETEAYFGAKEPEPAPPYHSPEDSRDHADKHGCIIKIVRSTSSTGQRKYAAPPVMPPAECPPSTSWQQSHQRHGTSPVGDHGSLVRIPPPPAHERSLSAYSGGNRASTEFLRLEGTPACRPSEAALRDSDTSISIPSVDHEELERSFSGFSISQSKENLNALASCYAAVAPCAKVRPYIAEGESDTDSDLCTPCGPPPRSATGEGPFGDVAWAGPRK
# KCNQ2 enhance baseline = second read-out of KCNQ2 enhance, no call of its own (marks repeat the call); B-score; compound at 10 µM; measured here: initial fluorescence intensity artifact check;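 brightness before thallium and not channel activity; 0 = typical well and far values either way flag optical interference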
# * = called active by the depositor.
SMILES,KCNQ2 enhance,KCNQ2 enhance baseline
CCC(=O)Nc1nc(C)c(C(=O)N2CCCCC2)s1,1.5,0.93
Cc1ccc(NC(=O)CN2CCN(CCN=CC3=C(O)CC(C)(C)CC3=O)CC2)cc1,0.54,-0.08
Cc1cc(NC(=O)CC(C)(C)C)nc2c1c(=O)oc1ccccc12,0.47,0.26
Cc1nc(NCCc2ccccc2)sc1C(=O)N(C)C,0.14,2.1
Cc1ccc(NC(=O)CSc2ccc(-c3ccccn3)nn2)cc1F,0.15,-1.5
CC1(C)OC(=O)N(c2cccnc2)C1(C)O (stereo not given),0.43,0.11
CN(C)c1cc(-c2cccc([N+](=O)[O-])c2)oc(=O)c1Cl,0.12,0.75
C=CCn1cccc(C(=O)Nc2ccc(OC)c(Cl)c2)c1=O,0.26,1.7
CC(=O)C1=C(O)C(=O)N(c2ccc(C(=O)O)cc2)C1c1ccc([N+](=O)[O-])cc1 (stereo not given),0.89,0.51
O=C(/C=C/Sc1ncn[nH]1)c1ccc(Cl)cc1,6.6*,2*
COc1ccc(S(=O)(=O)N2CCOCC2)cc1C(=O)N1CCCC1,0.78,-0.42
COCC(C)OC(=O)c1c(N)n(-c2ccc(OC)c(OC)c2)c2nc3ccccc3nc12 (stereo not given),0.12,0.68
O=C(Cn1nc(-c2ccccc2)c2ccccc2c1=O)Nc1ccc(O)cc1,0.01,1.8
Cc1ccsc1C(=O)OCC(=O)Nc1sccc1C(N)=O,0.31,0.25
CCOC(=O)/C=C/C(=O)Nc1ccc(S(=O)(=O)N(C)c2ccccc2)cc1,1.2,-1.2
CCC(=O)Nc1ccc2oc(-c3cccnc3)nc2c1,0.81,1.4
CCc1ccccc1NC(=O)CSc1nc2ccccc2n1CC(=O)N(C)C,2.2,0.16
C=CCNCC(O)COc1ccc(C(C)=O)cc1OC (stereo not given),0.02,0.94
O=C(COC(=O)CCSc1ccc(Cl)cc1)NCc1ccccc1Cl,0.33,0.75
COc1ccc(NCc2nnc(SCC(=O)N3CCCc4ccccc43)o2)cc1,0.47,-0.4
CC1CCCN(c2nc3c(c(=O)[nH]c(=O)n3C)n2Cc2ccccc2Cl)C1 (stereo not given),1.2,-0.86
CC(C)c1cc(C(=O)NNC(=S)NCc2ccco2)c(O)c(C(C)C)c1,0.05,1.2
COc1ccc(C2CCCN2C(=S)Nc2ccc(C)c(C)c2)cc1OC (stereo not given),0.76,0.23
Cc1nc(N2CCOCC2)nc(N2CCCCC2)c1[N+](=O)[O-],1.5,-2
C/C(=N\NC(=S)NC(C)C)c1ccc(Cl)c([N+](=O)[O-])c1,3.4,-1.1
O=C(COC(=O)Cc1ccsc1)NCC12CC3CC(CC(C3)C1)C2,0.56,-2
N#Cc1c(NCCCO)nc(-c2ccco2)c2c1CCCC2,0.3,-0.95
Cc1ccc(S(=O)(=O)CCc2nnc(NC(=O)C3CCCO3)s2)cc1 (stereo not given),0.86,1.1
Cc1noc(C(=O)NCc2ccco2)c1Cl,1.8,-1.1
CN(Cc1ccccc1F)c1ncnc2sccc12,2.6,0.53

# Shown with values ahead of the structure: entries from further up.
KCNQ2 enhance	KCNQ2 enhance baseline	SMILES
1.5	0.93	CCC(=O)Nc1nc(C)c(C(=O)N2CCCCC2)s1
0.54	-0.08	Cc1ccc(NC(=O)CN2CCN(CCN=CC3=C(O)CC(C)(C)CC3=O)CC2)cc1
0.47	0.26	Cc1cc(NC(=O)CC(C)(C)C)nc2c1c(=O)oc1ccccc12
0.14	2.1	Cc1nc(NCCc2ccccc2)sc1C(=O)N(C)C
0.15	-1.5	Cc1ccc(NC(=O)CSc2ccc(-c3ccccn3)nn2)cc1F
0.43	0.11	CC1(C)OC(=O)N(c2cccnc2)C1(C)O (stereo not given)
0.12	0.75	CN(C)c1cc(-c2cccc([N+](=O)[O-])c2)oc(=O)c1Cl
0.26	1.7	C=CCn1cccc(C(=O)Nc2ccc(OC)c(Cl)c2)c1=O
0.89	0.51	CC(=O)C1=C(O)C(=O)N(c2ccc(C(=O)O)cc2)C1c1ccc([N+](=O)[O-])cc1 (stereo not given)
6.6*	2*	O=C(/C=C/Sc1ncn[nH]1)c1ccc(Cl)cc1
0.78	-0.42	COc1ccc(S(=O)(=O)N2CCOCC2)cc1C(=O)N1CCCC1
0.12	0.68	COCC(C)OC(=O)c1c(N)n(-c2ccc(OC)c(OC)c2)c2nc3ccccc3nc12 (stereo not given)
0.01	1.8	O=C(Cn1nc(-c2ccccc2)c2ccccc2c1=O)Nc1ccc(O)cc1
0.31	0.25	Cc1ccsc1C(=O)OCC(=O)Nc1sccc1C(N)=O
1.2	-1.2	CCOC(=O)/C=C/C(=O)Nc1ccc(S(=O)(=O)N(C)c2ccccc2)cc1
0.81	1.4	CCC(=O)Nc1ccc2oc(-c3cccnc3)nc2c1
2.2	0.16	CCc1ccccc1NC(=O)CSc1nc2ccccc2n1CC(=O)N(C)C
0.02	0.94	C=CCNCC(O)COc1ccc(C(C)=O)cc1OC (stereo not given)
0.33	0.75	O=C(COC(=O)CCSc1ccc(Cl)cc1)NCc1ccccc1Cl
0.47	-0.4	COc1ccc(NCc2nnc(SCC(=O)N3CCCc4ccccc43)o2)cc1
1.2	-0.86	CC1CCCN(c2nc3c(c(=O)[nH]c(=O)n3C)n2Cc2ccccc2Cl)C1 (stereo not given)
0.05	1.2	CC(C)c1cc(C(=O)NNC(=S)NCc2ccco2)c(O)c(C(C)C)c1
0.76	0.23	COc1ccc(C2CCCN2C(=S)Nc2ccc(C)c(C)c2)cc1OC (stereo not given)
1.5	-2	Cc1nc(N2CCOCC2)nc(N2CCCCC2)c1[N+](=O)[O-]
3.4	-1.1	C/C(=N\NC(=S)NC(C)C)c1ccc(Cl)c([N+](=O)[O-])c1
0.56	-2	O=C(COC(=O)Cc1ccsc1)NCC12CC3CC(CC(C3)C1)C2
0.3	-0.95	N#Cc1c(NCCCO)nc(-c2ccco2)c2c1CCCC2

# (further entries)
SMILES,KCNQ2 enhance,KCNQ2 enhance baseline
COc1ccc(CCN(C(=O)c2snc(C(N)=O)c2N)C(C(=O)NCC2CCCO2)c2ccc(F)cc2)cc1OC (stereo not given),1.4,-0.52
Cc1cc(C)cc(OCC(=O)NCc2cc(C)nc3ccccc23)c1,0.07,1.1
CCc1ccccc1NC(=O)CSc1nnc(CNC(=O)c2ccco2)n1C,0.47,1.4
CNC(=O)C(=O)NCC1OCCN1S(=O)(=O)c1ccc([N+](=O)[O-])cc1 (stereo not given),0.27,0.32
O=C1CC(NNc2ccccc2)C(=O)N1c1cccc(Cl)c1 (stereo not given),0.67,-1
O=C(C[n+]1cc(-c2ccccc2)n2c1CCC2)c1cccs1,1,-0.2
Cc1cc(C(=O)Nc2ccc(S(=O)(=O)N3CCOCC3)cc2)c(C)o1,0.04,0.11
COCCn1c(NCc2ccc(C)cc2)nc2c1c(=O)[nH]c(=O)n2C,0.87,1.3
COc1cccc(NS(=O)(=O)c2c(C)n(C)c(=O)n(C)c2=O)c1,0.61,-0.29
Cc1c(C(=O)NCc2ccccn2)sc2nc(-c3ccc(F)cc3)cn12,2,-1.3
COc1ccc(CC(=O)Nc2c3c(nn2-c2cccc(Cl)c2)CS(=O)(=O)C3)cc1,0.32,-0.54
O=C(Nc1ccccc1F)c1ccc(CSc2ncccn2)cc1,0.17,0.82
COC(=O)[C@H](C)NC(=O)NCc1ccc(F)cc1,0.44,-0.85
Nc1cccc(-c2cc3ccccc3oc2=O)c1,0.54,0.15
CCCCNC(=O)c1onc(CSc2ccc(OC)cc2)c1C(=O)O,3,1.4
O=C(N/N=C1\CCc2ccccc21)c1ccncc1,0.59,-0.1
COC(=O)[C@@H](NC(=O)Nc1ccc(OC)cc1)C(C)C,1,0.71
O=c1[nH]c(CSc2ncc(C(F)(F)F)cc2Cl)nc2ccccc12,0.08,-0.82
Cc1cc(CN(C)C(=O)c2ccc3nc(Cc4ccccc4F)oc3c2)on1,0.89,0.39
CCn1c(SCC(=O)N2CCCC(C)C2)nnc1-c1ccco1 (stereo not given),1.8,0.79
Cn1c(NCC(O)CO)nc2c1c(=O)n(Cc1ccc(Cl)c(Cl)c1)c(=O)n2C (stereo not given),0.16,0.92
CCOCCn1c(CC)nc2ccccc21,1.3,1
O=C(CN1CCCN(Cc2ccc(F)cc2Cl)C1=O)NC1CCCC1,1.3,0.67
CNC(=O)c1[nH]cnc1C(=O)N[C@@H](Cc1ccccc1)C(=O)OC(C)(C)C,0.94,-1.4
Cc1ccc(CNC(=O)C2CCN(S(=O)(=O)c3cccc4nonc34)CC2)cc1,1.3,0.02
CC(Sc1nnc(-c2ccc(O)cc2)o1)C(=O)Nc1cccc2ccccc12 (stereo not given),0.73,-0.44
CCn1ncc(/C=N/O)c1C,0.37,2.2
Cc1cc(C)n2[nH]c(=O)c(N=Nc3cccc(C(F)(F)F)c3)c2n1,0.16,0.13
CCOC(=O)N1CCN(Cc2nc3cc(NC(C)=O)ccc3n2CC)CC1,0.5,0.02
COc1ccc(N(C(=O)c2ccco2)S(=O)(=O)c2cccc([N+](=O)[O-])c2)cc1,1.4,-1.2
CCCCCCn1cc(C(=O)O)c(=O)c2cc(F)c(N3CCN(C(=O)OCC)CC3)cc21,0.78,0
COc1ccccc1NC(=O)N(CCN(C)C)Cc1cc2cc(C)ccc2[nH]c1=O,2,0.25
CCOC(=O)N1CCN(C(c2ccc(F)cc2)c2sc3nc(C)nn3c2O)CC1 (stereo not given),0.91,1.3
Cc1nn(Cc2n[nH]c(=S)n2Cc2ccccc2)c(C)c1Cl,0.1,-0.27
COc1ccc([N+](=O)[O-])cc1NS(=O)(=O)c1cccc(C(=O)O)c1,0.47,-0.51
COc1cc(OC)c2cc(C(=O)N/N=C/c3cccc(OC)c3O)[nH]c2c1,0.99,-0.01
C#CCCOC(=O)N1C2=NC(C(=O)OC)=C(C(=O)OC)[C@@H]3N(Cc4ccccc4)c4ccccc4[C@]23C[C@H]1C(=O)OC,1.7,0.15
Cc1cccc(NC(=O)c2cc(S(=O)(=O)NCc3ccco3)ccc2F)c1C,0.69,-0.12
CCOC(=O)c1sc2ncnc(N3CCN(C)CC3)c2c1C,0.7,-0.4
CCOC(=O)c1sc(Nc2nc(C)cc(OC)n2)nc1C,1.1,0.02
CC(=O)c1ccc(OCCOc2ccc(C#N)cc2)cc1,0.13,0.56
CCOC(=O)c1sc(=NC(=O)c2cccc(Br)c2)n(C)c1C,1.4,0.74
CCC(C)Sc1nnc(NS(=O)(=O)Cc2ccccc2)s1 (stereo not given),1.2,-0.5
Cc1onc(-c2ccccc2)c1C(=O)Nc1ccc(NC(=O)c2c(-c3ccccc3)noc2C)cc1,0.31,0.35
Cc1onc(-c2ccccc2)c1C(=O)NCc1cccnc1,0.53,-2.4
O=C(NCc1ccco1)/C(=C\c1cccs1)NC(=O)c1ccccc1,0.44,1.6
Nc1ncnc2c1cnn2-c1ccccc1,1.2,0.57
Cc1ccc(CNC(=O)NC2CCCCC2)cc1,5.1,-0.04
COc1cc(/C(C)=N/NC(=O)CSc2nncn2C)ccc1OCc1ccccc1Cl,1.9,0.04
CN(C(=O)c1ccc(S(=O)(=O)NC2CCCC2)cc1)C1CCCCC1,0.13,2

# Arranged by the number under KCNQ2 enhance baseline (ascending): 3 from the list above.
SMILES,KCNQ2 enhance,KCNQ2 enhance baseline
O=C(COC(=O)Cc1ccsc1)NCC12CC3CC(CC(C3)C1)C2,0.56,-2
CC(=O)C1=C(O)C(=O)N(c2ccc(C(=O)O)cc2)C1c1ccc([N+](=O)[O-])cc1 (stereo not given),0.89,0.51
CCC(=O)Nc1nc(C)c(C(=O)N2CCCCC2)s1,1.5,0.93

# (next part)
SMILES,KCNQ2 enhance,KCNQ2 enhance baseline
c1ccc(Cn2c(-c3ccccc3)c[n+]3c2SCCC3)cc1,0.63,2.1
Cc1c(C(=O)O)oc2c1/C(=N\O)CC(C)(C)C2,0.8,-0.47
COc1ccc2oc(C(=O)N3CCN(C(=O)c4ccco4)CC3)c(C)c2c1,3.3,-1.7
O=C(NCc1ccc2c(c1)OCO2)C1CCN(c2ccc(S(=O)(=O)N3CCCC3)cc2)CC1,0.53,1.4
CCOc1ccc2nc(NC(=O)CCn3cccc3)sc2c1,0.74,1
COc1ccc(CCNC(=O)c2cc3c(=O)n4ccccc4nc3n(C3CCCCC3)c2=N)cc1OC,1.3,0.25
CCS(=O)(=O)N1CCN(S(=O)(=O)c2ccc3ccccc3c2)CC1,0.87,0.79
Cc1ccc(NS(=O)(=O)c2ccc(C(=O)NCc3ccccn3)cc2)cc1,1.7,0.7
Cc1ccc(S(=O)(=O)N(CC(=O)N/N=C/c2ccc(F)cc2)c2cccc3cccnc23)cc1,0.92,-0.27
COCCn1c(SC(C)C(=O)NC2CC2)nnc1-c1cccc(C)c1 (stereo not given),1.4,-0.17
COc1ccc2oc(C(=O)OCC(=O)N3CC(C)OC(C)C3)c(C)c2c1 (stereo not given),0.29,0.81
CC(=O)OC(Cn1nc(C)cc1C)c1ccccc1 (stereo not given),0.23,0.71
COc1ccc(-c2cc(-c3cc(F)ccc3O)[nH]n2)cc1OC,1.5,2.3
CCCCN(C)CCNC(=S)Nc1ccc2nc(N3CCN(CC)CC3)cc(C)c2c1,3.2,0.86
CCN(CC)CCNC(=O)C1c2ccccc2C(=O)N(CCOC)C1c1ccc(F)cc1 (stereo not given),0.21,-1.9
O=S(=O)(O)c1cccc(N=Nc2c(O)ccc3ccccc23)c1,1.4,-1.1
Cc1ccc(C)c(-n2nnnc2SCC(=O)c2c(N)n(C)c(=O)n(C)c2=O)c1,0.89,0
COc1ccc(/C=N/NC(=O)c2nc(Cl)c(Cl)c(N)c2Cl)cc1COc1ccc(F)cc1F,0.12,0.41
COc1ccc(S(=O)(=O)NNC(=O)Cc2csc(C)n2)cc1[N+](=O)[O-],0.02,-0.45
CCOc1ccccc1NC(=S)N1CCN(c2cccc(C)c2C)CC1,1.8,-1.2
Cc1ccccc1-c1nnn(CC(=O)N(C)CC(=O)Nc2ccccc2C(F)(F)F)n1,1.2,-0.38

# Bioassay records: PubChem, Johns Hopkins Ion Channel Center

# This is a subset; rates above refer to the full screens.
